Screening data as filed in PubChem BioAssay.
Mtb growth – M. tuberculosis H37Rv growth inhibitors, H37Rv strain (AID 1626); M. tuberculosis H37Rv growth inhibition; higher % means a stronger effect; inhibition, % at 10 µM; hits with a dose series show IC50 in µM; 220,000 tested, 0.95% active;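 active means confirmed in a dose series; inconclusive means inhibition above 80% but not taken into the dose series; inactive means below 80% or under 30% at every dose of the series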;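 further: bacteria incubated seven days before Alamar blue readout; 0% = bacteria only wells and 100% = bacteria with antibiotic wells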
Mtb betalactam – beta-lactam sensitization of Mtb H37Rv; inhibition, % at 25 µM; M. tuberculosis H37Rv growth with meropenem, percent inhibition; hits of this screen are not shown here; 330,000 tested, 0.27% active;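 active means about 74% or more and at least 40 points above the plate without the antibiotic, then above 30% in a dose series; inconclusive means first-round hits that could not be retested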;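 further: growth measured after seven days incubation then overnight dye step; 0% = bacteria only wells and 100% = bacteria with antibiotic; twin plates without the antibiotic show which effects depend on it; some results filed as inactive read as strong as hits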
Arbovirus anti – antivirals against arbovirus infection; arbovirus infection cell-based antiviral screen; inhibition, % at 10 µM; 200,000 tested, 0.37% active; AID 1251;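 active means inhibition from about 30%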;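 further: bluetongue infection of BSR cells; cell survival read as ATP light after 72 h; 0% = infected wells without compound and 100% = uninfected wells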
RecA splice inh – blocks M. tuberculosis RecA intein splicing; 290,000 tested, 0.75% active; cell-free RecA intein splicing, fluorescence; inhibition, %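 (about 9 µM by stock and volumes)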; in the data active means inhibition above about 30%; inconclusive means no clear call, values can overlap the other calls;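 further: 0% = vehicle wells and 100% = reference inhibitor control wells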
Target sequence (P9WHJ3 whole entry, looked up, canonical isoform): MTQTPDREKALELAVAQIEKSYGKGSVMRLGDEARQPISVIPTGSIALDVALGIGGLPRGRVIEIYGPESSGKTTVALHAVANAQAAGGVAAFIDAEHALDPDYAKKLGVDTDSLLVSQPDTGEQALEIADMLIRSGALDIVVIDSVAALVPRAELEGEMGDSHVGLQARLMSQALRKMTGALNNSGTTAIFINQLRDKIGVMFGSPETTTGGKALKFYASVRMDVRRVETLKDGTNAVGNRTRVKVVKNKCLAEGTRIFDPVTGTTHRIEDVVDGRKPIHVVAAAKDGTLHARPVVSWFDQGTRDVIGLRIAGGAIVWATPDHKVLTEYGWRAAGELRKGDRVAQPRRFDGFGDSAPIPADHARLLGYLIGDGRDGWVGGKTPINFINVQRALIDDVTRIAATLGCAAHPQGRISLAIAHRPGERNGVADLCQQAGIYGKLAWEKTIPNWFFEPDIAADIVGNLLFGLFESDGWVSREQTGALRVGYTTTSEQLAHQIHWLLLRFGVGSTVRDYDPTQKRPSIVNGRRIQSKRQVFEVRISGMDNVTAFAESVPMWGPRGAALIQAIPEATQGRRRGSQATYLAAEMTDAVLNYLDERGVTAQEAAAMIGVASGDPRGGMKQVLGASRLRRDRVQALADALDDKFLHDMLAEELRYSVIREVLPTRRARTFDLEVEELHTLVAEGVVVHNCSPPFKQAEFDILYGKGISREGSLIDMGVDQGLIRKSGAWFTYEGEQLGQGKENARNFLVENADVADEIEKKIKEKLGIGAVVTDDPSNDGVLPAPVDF
YopH inh – YopH (Yersinia) phosphatase inhibition; 140,000 tested, 0.16% active; inhibition, %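 (about 10 µM by stock and volumes)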; fluorescence Ex485/Em525;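 active means inhibition of 50% or more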;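 further: controls were vehicle for no effect and minimum signal wells for full effect; inactives centre near -20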
Arbovirus anti repeat – further read-out of Arbovirus anti, marked with its call; inhibition, %; measured here: 10K subset replicate screen; many hits read low in the repeat;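 first of two repeat runs on a subset; 0% = infected and 100% = uninfected wells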
Active calls of the source: *; ? = inconclusive; . = not tested or not shown. An excerpt; rates above refer to the full screens.

SMILES	Mtb growth	Mtb betalactam	Arbovirus anti	RecA splice inh	YopH inh	others
CN(C(=O)COc1ccc(S(=O)(=O)N2CCOCC2)cc1[N+](=O)[O-])C1CCS(=O)(=O)C1 (configuration not stated)	-7%	-7	.	-1.4	.
N#CCCn1cc(C(=O)Nc2ccc(F)cc2)c(-c2ccccc2)n1	.	1	.	-0.6	.
OCCC1CN(Cc2ccon2)CCN1Cc1ccc(F)c(F)c1 (configuration not stated)	-8%	-1	4	4.5	.
CN1C(=O)c2ccc(NC(=S)NC(=O)C(C)(C)C)cc2C1=O	-4%	-4	-3	-2.6	-31
Cc1ccc(CN(Cc2ccco2)S(=O)(=O)c2ccc(S(=O)(=O)NCC3CCCO3)cc2)cc1 (configuration not stated)	-4%	-1	-16	-2.5	-17
Cc1ccc(Nc2nnc(SCC(=O)c3cc4ccccc4o3)s2)cc1C	7%	-7	-2	-15	-21
COC(=O)c1ccc(NC(=S)Nc2ccccn2)cc1	0%	-5	-4	-0.8	-36
C=CCNC(=O)NC(=O)COC(=O)COc1ccc(Br)cc1F	-2%	-12	8	.	-30
O=S(=O)(c1ccccc1Cl)N1CCC(O)(c2ccc3c(c2)OCO3)CC1	-9%	-5	-25	1.2	-15
Cc1nnc(SCCN2CCOCC2)n1C	-7%	0	1	2.6	-24
CN1CCN(C(=S)Nc2ccccc2Cl)CC1	4%	-5	2	-3.9	-20
O=C(NC(=Nc1ccccc1)N1CCOCC1)Nc1ccccc1	-7%	3	6	.	-23
CCOc1ccc(S(=O)(=O)NC(C)C(=O)NCc2ccc3c(c2)OCO3)cc1 (configuration not stated)	.	6	.	-3.9	.
O=C(O)c1ccc(NS(=O)(=O)c2ccc3c(c2)C(=O)c2cc(S(=O)(=O)Nc4ccc(C(=O)O)cc4)ccc2-3)cc1	-9%	-3	7	-2.5	.
COc1ccc(OC)c(-n2c(-c3cccc(S(=O)(=O)N(C)C)c3)n[nH]c2=S)c1	1%	0	4	-1.3	.
O=C1c2ccccc2C(=O)N1CCCc1nc(-c2ccncc2)no1	-4%	7	-1	5.0	-6
CCOc1ccccc1N1CCN(C(=O)c2c(-c3ccccc3Cl)noc2C)CC1	7%	2	0	5.0	-41
COc1ccc2c(c1)S/C(=C\C(=O)c1ccncc1)N2C	1%	58	-15	-1.6	-17
CCOc1ccccc1NC(=O)/C=C/C(N)=O	0%	-1	2	-0.8	6
COc1ccc(-n2c(-c3ccco3)n[nH]c2=S)cc1	-2%	0	-3	0.4	-34

The last 2 entries of the part above are carried over, then new ones follow:
SMILES	Mtb growth	Mtb betalactam	Arbovirus anti	RecA splice inh	YopH inh	others
CCOc1ccccc1NC(=O)/C=C/C(N)=O	0%	-1	2	-0.8	6
COc1ccc(-n2c(-c3ccco3)n[nH]c2=S)cc1	-2%	0	-3	0.4	-34
Cc1ccc(N(CC(=O)NC2CCCCC2)C(=O)CNC(=O)c2ccco2)cc1F	.	2	.	1.5	.
Cn1cnc2c(cnn2-c2ccccc2)c1=O	.	-3	.	-0.9	.
Cc1ccc(C)c2[nH]c(=O)c(CCNC(=O)c3cc4ccccc4o3)cc12	7%	-4	4	-0.8	-31	Arbovirus anti repeat=5
COC(=O)c1sccc1NC(=O)COc1cccc(C)c1	0%	47	.	8.3	.
CC(/C=N/NC(=O)Cn1nccc1C)=C\c1ccc(C(C)C)cc1	19%	1	-17	8.3	-32
O=C(NCC1CCCO1)C(c1ccc(F)cc1)N(C(=O)Cn1nnc(-c2ccc(F)cc2)n1)c1cccc(O)c1 (configuration not stated)	-8%	-2	11	0.9	.
CC1CCCCN1C(=O)C1CCCCN1S(=O)(=O)c1cccc([N+](=O)[O-])c1 (configuration not stated)	3%	-1	.	-0.8	.
CCCCC(=O)Nc1c(C)cc(C)cc1Cl	0%	98	-1	-0.4	6
NC(=O)c1sc(=S)n2c1[nH]c(=O)c1sccc12	0%	-8	4	-1.4	.
COc1ccc(-n2nc3c(c2NC(=O)c2ccc(S(=O)(=O)N4CCOCC4)cc2)CS(=O)C3)cc1 (configuration not stated)	4%	7	1	0.0	.
c1ccc2c(c1)CNc1ccccc1C2	-5%	-8	-8	4.1	0
Cn1c(Cc2ccccc2)[n+](C)c2ccccc21	4%	-7	7	-3.7	.
COc1ccccc1OCC(O)Cn1c(Br)nc2c1c(=O)[nH]c(=O)n2C (configuration not stated)	3%	-3	3	3.0	-12
Cc1c(CCC(=O)NCCC(=O)O)c(=O)oc2c(C)c3oc4c(c3cc12)CCCC4	.	0	.	-4.9	.
COC(=O)c1ccccc1NC(=O)CSc1nc(NC(=O)c2ccccc2)c2c(C)c(C)oc2n1	2%	5	-3	-11	7
CCn1c(NCCO)nc2c(c1=O)C(C)(CC)Cc1ccccc1-2 (configuration not stated)	-5%	-4	.	-2.8	.
CCn1c2ccccc2c2cc(NC(=O)COc3ccccc3OC)ccc21	13%	11	-27	-1.2	-9
CCc1ccc2c(c1)C(=O)c1ccccc1C2=O	7%	-2	-13	3.4	-8
Cc1ccccc1-n1c(C)nc2ccccc2c1=O	3%	-2	-2	0.5	.
Cc1cc(NC(=O)CCC(=O)N(CC2CCCO2)C(C(=O)NC2CCCC2)c2ccccc2C)no1 (configuration not stated)	2%	1	.	.	-30

Random excerpt: seven records from the list.
SMILES	Mtb growth	Mtb betalactam	Arbovirus anti	RecA splice inh	YopH inh	others
COc1ccc(OC)c(-n2c(-c3cccc(S(=O)(=O)N(C)C)c3)n[nH]c2=S)c1	1%	0	4	-1.3	.
CN1C(=O)c2ccc(NC(=S)NC(=O)C(C)(C)C)cc2C1=O	-4%	-4	-3	-2.6	-31
Cn1c(Cc2ccccc2)[n+](C)c2ccccc21	4%	-7	7	-3.7	.
COC(=O)c1ccc(NC(=S)Nc2ccccn2)cc1	0%	-5	-4	-0.8	-36
Cc1nnc(SCCN2CCOCC2)n1C	-7%	0	1	2.6	-24
CC1CCCCN1C(=O)C1CCCCN1S(=O)(=O)c1cccc([N+](=O)[O-])c1 (configuration not stated)	3%	-1	.	-0.8	.
O=C(NC(=Nc1ccccc1)N1CCOCC1)Nc1ccccc1	-7%	3	6	.	-23

Continued:
SMILES	Mtb growth	Mtb betalactam	Arbovirus anti	RecA splice inh	YopH inh	others
COc1ccc(Cl)cc1NC(=O)C1COc2ccccc2O1 (configuration not stated)	6%	7	32*	5.8	.
COC(=O)c1cccc(NS(=O)(=O)c2ccc(OC)cc2)c1C	4%	-5	-9	0.3	26
CCCCc1c(O)c2cccc3c2n(c1=O)CCC3	.	-9	.	-0.1	.
COc1ccc2c(c1OC)C(=O)OC2Nc1nc(-c2cc3ccccc3oc2=O)cs1 (configuration not stated)	3%	59	-7	-8.0	-7
O=C(Nc1nccs1)NC(C(F)(F)F)C(F)(F)F	0%	-16	7	-5.0	3
COc1cccc(/C=N/NC(=O)Cn2ccnc2C)c1	6%	0	-5	0.5	-9
CC1(C(=O)O)CCCC2(C)c3cc(O)ccc3CCC12 (configuration not stated)	.	-10	.	-0.1	.
CCOc1ccc(CNC(=O)CCCC(=O)n2ncc3cc(C)ccc32)cc1	.	2	.	0.3	.
CCOC(=O)C(CC)Sc1nnc(COc2ccc(C)cc2)n1-c1ccccc1 (configuration not stated)	-7%	2	3	7.7	-20
CN(/N=C/c1ccc(-c2ccc([N+](=O)[O-])cc2)o1)c1ccccc1	.	-1	.	-0.3	.
O=[N+]([O-])c1ccc(C[n+]2cccc3c4ccccc4ccc32)cc1	10%	8	0	-2.0	.
CCC(c1nnnn1Cc1ccccc1)N(Cc1cc2cc(OC)ccc2[nH]c1=O)CC1CCCO1 (configuration not stated)	0%	56	0	-11	9
COC(=O)c1ccc(NC(=O)C2C3C=CC(C3)C2C(=O)O)cc1 (configuration not stated)	.	4	.	-7.6	.
O=C(NNS(=O)(=O)c1ccc(F)cc1F)C1Cc2c(ccc3ccccc23)O1 (configuration not stated)	-6%	4	20	-0.9	-45
O=C(O)c1ccccc1C(=O)Nc1nccs1	-16%	-18	12	-1.6	8
CCCc1cc(=O)oc2c3c(cc(OCC(=O)N4CCC[C@H]4C(=O)O)c12)OC(C)(C)CC3	.	-8	.	-1.8	.
CCOC(=O)CCc1c(C)nc(SCc2ccc(C(=O)O)cc2)c(C#N)c1C	.	-2	.	-0.7	.
CSC(=NC#N)N1CCN(C(c2ccccc2)c2ccccc2)CC1	.	5	.	18	.
CCCC/C(O)=C1\C(=O)CC(C)(C)CC1=Nc1ccc(OC)cc1	-7%	-1	-18	8.3	23
CNC(=O)c1cc2cc(OC)ccc2oc1=O	1%	2	-9	-28	-13
CCC1CN(S(=O)(=O)c2cc(-c3cc(C)no3)ccc2OC)c2cc(C)ccc2O1 (configuration not stated)	.	-2	.	1.5	.
COc1ccccc1NC(=O)COC(=O)CCS(=O)(=O)c1ccc(C)cc1	.	-6	.	-2.5	.
Cc1nn(C(=O)c2ccc([N+](=O)[O-])cc2)c(C)c1Br	-12%	38	.	.	.
COc1cccc(/C=N/NC(=O)c2ccncc2)c1OC(=O)c1ccc(Br)cc1	.	99	.	-0.3	.
Cc1ccc(NC(=O)COc2ccc(/C(N)=N/O)cc2)cc1C	19%	3	-14	0.2	-20
CC(=O)Nc1ccc(OC(=O)CC2SC(=O)NC2=O)cc1 (configuration not stated)	0%	2	-6	-0.3	-17
O=S(=O)(c1ccc(Cl)nc1)N1CCN(c2ncccn2)CC1	-8%	-2	.	-2.2	.
COc1ccc(-c2sc3ccc(N4CCOCC4)cc3c2-c2ccc(OC)c(F)c2)cc1	.	39	.	1.7	.
Cn1ncc(Br)c1C(=O)Nc1c(F)c(F)cc(F)c1F	-16%	-16	-2	-3.1	30
CCCOc1ccccc1C(=O)N(Cc1cccc(Br)c1)C1CCS(=O)(=O)C1 (configuration not stated)	.	-7	.	1.1	.
O=C(O)c1cc(O)c2c(c1)[C@@H]([C@H]1c3cc(C(=O)O)cc(O)c3C(=O)c3c(O[C@@H]4O[C@H](CO)[C@@H](O)[C@H](O)[C@H]4O)cccc31)c1cccc(OC3O[C@H](CO)[C@@H](O)[C@H](O)[C@H]3O)c1C2=O (some centres not stated)	.	8	.	13	.
COCc1nnc(NC(=O)c2ccc(OC)cc2OC)s1	-1%	12	3	0.8	.
Clc1ccc2nnc(Cl)n2n1	?	100	4	-3.8	.
Cc1ccc(NC(=O)C2CCN(S(=O)(=O)c3cnc[nH]3)CC2)cc1C	-9%	4	11	-2.8	-28
Cc1ccc(-n2nc3c(=O)n(CCCC(=O)NCc4ccc(Cl)cc4)nc(C)c3c2C)cc1	.	23	.	-1.5	.
COc1cc(/C=C2/C(=O)N(c3ccc(C)c(C)c3)N=C2C)cc([N+](=O)[O-])c1O	.	8	.	42*	.
Cn1c(CCC(=O)OCC(=O)Nc2ccc(Oc3ccccc3)cc2)nc(=O)c2ccccc21	63%	40	-1	-4.4	-21
Cc1c(Cl)cccc1-n1c(-c2cccnc2)n[nH]c1=S	-4%	-7	2	0.3	.
Cc1cc(N2C(=O)C3C4CC(c5ccccc5)C(C4)C3C2=O)no1 (configuration not stated)	8%	-3	1	-1.5	.
COc1cccc(Nc2nc3ccccc3nc2-n2nc(C)cc2C)c1	15%	5	8	-28	-22
O=C1/C(=C/c2cccnc2)N=C2CCCCCN12	-1%	-7	-1	-5.3	.
CCOc1cc(/C=C2\C(=O)ON=C2c2ccccc2)cc(Br)c1O	.	7	.	5.1	.
O=C(O)COc1c(Cl)cc(/C=C2/NC(=O)NC2=O)cc1Br	-9%	-9	10	-3.7	.
CCC(C)NC(=O)C(=O)NC1CCCC1 (configuration not stated)	-11%	.	-1	-3.7	-17
CCOC(=O)C1CCN(C(=S)Nc2cccc(C)c2C)CC1	5%	-4	6	-0.8	-20
Cc1cc(Cl)ccc1OCCCC(=O)NCc1ccncc1	-3%	-6	-2	2.9	-39
Cn1c(CNC(=O)CNS(=O)(=O)c2ccccc2)cc(=O)n(C)c1=O	.	-8	.	-0.1	.
CC(C)NS(=O)(=O)c1ccc(OCC(=O)NC(C)c2ccccc2)cc1 (configuration not stated)	2%	10	3	-2.7	.
NC(=O)c1cc(NC(=O)CCNS(=O)(=O)c2cccc(C(F)(F)F)c2)cc(C(N)=O)c1	.	0	.	0.3	.
C=CCn1c(SCC(=O)Nc2cccc(OC)c2)nnc1-c1cccnc1	2%	2	-3	0.1	0	Arbovirus anti repeat=0
CCCSc1nc2c(=O)[nH][nH]c(=O)c2n1Cc1ccccc1	-3%	15	10	.	-14
Cc1cc2ncn(-c3nnnn3-c3ccccc3)c2cc1C	-4%	-6	-6	3.4	-6
CCn1cc(CNC(=O)C2CCC(=O)N(C3CCCCCC3)C2)cn1 (configuration not stated)	.	-6	.	0.3	.
Cc1ccccc1NC(=O)COc1coc(CN2CCN(Cc3ccccc3)CC2)cc1=O	.	-5	.	-3.1	.
CCOC(=O)C1=C(CSc2nc3c(cc2C#N)CN(C)CC3)OC(N)=C(C#N)C1c1ccccc1 (configuration not stated)	3%	-13	9	-9.9	-53
